# VDR inh – Inhibitors of the vitamin D receptor (VDR): qHTS. VDR-SRC2-3 peptide fluorescence polarization, 2 h. Vitamin D3 receptor (Homo sapiens), P11473. 0.93% of 400,000 active. Potency, µM, for the others: max response, negative = inhibition, usual class: inhibitors. AID 504847, 2011; active = well fitted inhibition curve with a large enough effect; inconclusive = small, poorly fitted or top-dose-only effect, or another doubt; inactive = no such curve, though single readings can be large or run the other way; note: series mostly up to about 120 µM
# Target sequence (P11473 whole entry, looked up): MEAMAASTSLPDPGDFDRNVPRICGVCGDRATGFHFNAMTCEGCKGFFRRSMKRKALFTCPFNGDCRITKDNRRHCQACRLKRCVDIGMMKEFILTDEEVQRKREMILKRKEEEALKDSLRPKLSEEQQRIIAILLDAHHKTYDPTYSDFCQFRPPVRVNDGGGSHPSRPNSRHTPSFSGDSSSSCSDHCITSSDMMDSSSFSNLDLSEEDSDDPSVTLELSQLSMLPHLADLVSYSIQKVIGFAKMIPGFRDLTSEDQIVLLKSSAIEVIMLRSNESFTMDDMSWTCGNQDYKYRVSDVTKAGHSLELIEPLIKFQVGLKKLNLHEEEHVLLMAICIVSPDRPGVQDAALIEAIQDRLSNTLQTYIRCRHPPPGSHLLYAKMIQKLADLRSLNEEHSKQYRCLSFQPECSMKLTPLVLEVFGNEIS
#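 VDR–SRC2-3 interaction, FP format. Cmpds 23 nl via pintool, brief spin, 2 h ambient incubation.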
# Numbers without * were called inactive; ? = inconclusive; & = joins results of further samples; [ ] = another dose, or the depositor's remark. % is set by controls: 0 for no effect and ±100 for the full control effect; potency is the fitted concentration of half-maximal effect. Only part of the results is shown (hit frequency here may not be typical).
SMILES,VDR inh
CCc1ccc(-c2nc(NC(=O)c3ccc(OCC(=O)Nc4ccc(F)cc4)c(OC)c3)sc2C)cc1,?
Cc1nc2cccnc2n1C1CCN(S(C)(=O)=O)CC1,-9.8%
O=S(=O)(c1ccccc1)N1CCC2(CCN(c3ccc(-c4ccccc4)cc3)CC2)CC1,6.3%
CN(C)c1ccnc(-c2cccc(NS(C)(=O)=O)c2)n1,3.8%
COc1ccc2c(c1)CCCC2=O,-19.1%
CSc1ncc(Cl)c(C(=O)Nc2ccccc2Br)n1,3.7%
CCNc1ncc2nc(C)c(=O)n(Cc3cccc(OC)c3)c2n1,-23.6%
CCC(=O)c1ccc(N2CCN(C(=O)Cc3ccccc3)CC2)c(F)c1,-6.4%
O=C(Cn1cc(SCc2cccc(Cl)c2)c2ccccc21)N1CCOCC1,?
CCc1ccc(CNC(=O)C2CCC(=O)N(CCc3ccc(Cl)cc3)C2)nc1 (stereo not drawn),-2.6%
Cc1sc2ncnc(SCC(=O)N3c4ccccc4Sc4ccc(Cl)cc43)c2c1C,7.8%
COc1cn(CC(=O)Nc2ccccc2)c(CN2CCCCC2)cc1=O,17.7%
COc1ccc(Cl)cc1NC(=O)CSc1nc(=O)n(Cc2ccco2)c2c1CCC2,10.6%
Cc1ccc(CNC(=O)C(Cc2ccccc2)NS(=O)(=O)c2ccc(Br)s2)cc1 (stereo not drawn),-4.2%
Cc1ccc(-n2nc3c(N4CCCC(C(=O)NCc5ccccc5C)C4)nnc(C)c3c2C)cc1 (stereo not drawn),-4.7%
COc1ccc(-n2nc(C(=O)NCC(=O)N3CCN(c4ccccn4)CC3)c3ccccc3c2=O)cc1OC,-0.6%
CCC(C)NCc1ccc(C(=O)OC)o1 (stereo not drawn),?
C[C@H](CO)N1C[C@H](C)[C@@H](CN(C)S(C)(=O)=O)Oc2ccc(N(C)C)cc2C1=O,-0.3%
COc1cc(C(=O)NCCCCCCNC(=O)c2cc(OC)c(OC)c(OC)c2)cc(OC)c1OC,13.1%
CCc1ccccc1NS(=O)(=O)c1ccc2[nH]cc(C(=O)N(CC)Cc3ccccc3)c(=O)c2c1,10.9%
CN(C(=O)COC(=O)c1ccc(C#N)cc1)c1ccccc1,-6.3%
Cc1ccc2nc(-c3ccccc3)c(CC(=O)O)c(C(=O)O)c2c1,?
Cc1ccc(CNC(=O)CC(C)S(=O)(=O)c2ccc3c(c2)NC(=O)CS3)o1 (stereo not drawn),-2.0%
Cc1cc(C(=O)NCCCN2CCCC2=O)cs1,-5.4%
COc1ccc(OC)c(C2C(C(=O)c3ccco3)=C(O)C(=O)N2Cc2cccnc2)c1 (stereo not drawn),-5.0%
# Continuation.
SMILES,VDR inh
O=S(=O)(c1cccc(-c2cn3cccnc3n2)c1)N1CCOCC1,4.0%
Cc1ccc(C)c(NC(=S)N(Cc2cccc(Br)c2)CC2CCC(C(=O)O)CC2)c1 (stereo not drawn),1.1%
O=[N+]([O-])c1ccc(NCCCN2CCOCC2)c(Cl)c1,6.3%
CNC(=O)c1c(NC(=O)c2cccc(C)c2)sc2c1CCC2,9.4%
Cc1ccc(CNS(=O)(=O)c2ccc3c(c2)n(C)c(=O)n3C)cc1,-7.6%
CCSc1cnc(-c2ccccc2)n1CC,5.3%
Cn1c(-c2cccc(Br)c2)n[nH]c1=O,-13.1%
Cc1ccc(NC(=O)CC2Nc3cc(C)c(C)cc3NC2=O)c(C)c1 (stereo not drawn),-8.0%
CN1CCN(/C=C(\C#N)S(=O)(=O)c2ccc(Cl)cc2)CC1,1.5%
O=C(CN1CCCCC1)Nc1ccc(NC(=O)c2ccccc2Cl)cc1Cl,7.7%
O=C(Cn1nc(-c2ccc(Cl)cc2)ccc1=O)NCC1CCCO1 (stereo not drawn),2.5%
Cc1ccc(S(=O)(=O)N2[C@@H](c3cccc(Cl)c3)C(C(=O)O)=CC[C@H]2c2ccc3c(c2)OCO3)cc1,?
CNC(=O)COc1ccc(NC(=O)c2ccc(-c3nn(C)c(=O)c4ccccc34)cc2)cc1,-17.3%
O=c1c(=O)n(-c2ccccc2)ccn1Cc1cccc(C(F)(F)F)c1,8.5%
CN(CC(=O)NC1CCCc2ccccc21)S(=O)(=O)c1cccs1 (stereo not drawn),0.8%
O=C(O)c1cc(NC(=O)c2ccc(Cl)c([N+](=O)[O-])c2)cc(C(=O)O)c1,107.9%[activator]
CCOc1ccc(C(=O)NCCc2sc(-c3ccc(C)cc3)nc2C)cc1,-2.3%
O=C(Nc1ccc2c(c1)OCO2)C1CCN(Cc2cnn(-c3ccccc3)c2-n2cccc2)CC1,12.4%
Oc1ccc2ccccc2c1C=Nc1ccccc1,8.3%
CC1(C)CC(=O)C2=C(C1)OC(N)=C(C#N)C21CCC2(CC1)OCCO2,3.2%
COc1ccc(CCNC(=O)COC(=O)COc2c(C)cc(C)cc2C)cc1OC,-4.1%
Cc1ccc(S(=O)(=O)CC(CN2CCCCC2)N2CCCCC2)cc1 (stereo not drawn),-19.8%
CC(C)(C)OC(=O)NCCCCC1=CC2=CC(=O)C(C)(OC(=O)C3CCCC3)C(=O)C2=CO1 (stereo not drawn),8.4%
Cc1ccccc1OC(C)C(=O)Nc1ccc2c(c1)OCCO2 (stereo not drawn),-4.7%
COC(=O)Nc1ccc(S(=O)(=O)N2CCCC(C(=O)Nc3cccc4c3OCCO4)C2)cc1 (stereo not drawn),-29.6%
# (listing goes on)
SMILES,VDR inh
Cc1cccnc1CCNC(=O)c1ccc(OC2CCN(Cc3ccccn3)CC2)cc1,-9.0%
Cc1ccc(C)c(Cn2nnc(C(=O)Nc3ccc4c(c3)OCCO4)c2N)c1,-7.8%
O=C(COC(=O)c1ccc(F)c(S(=O)(=O)N2CCOCC2)c1)NCCc1ccc(F)cc1,-9.9%
COCCCNC(=O)c1ccc2c(c1)N(Cc1ccccc1F)C(=O)c1ccccc1S2=O (stereo not drawn),-11.8%
COC(=O)NCC(c1ccco1)N1CCN(c2ccccc2)CC1 (stereo not drawn),-9.5%
O=c1[nH]c2ccccc2c(=O)n1CCCO,-1.3%
O=C(CSc1nnnn1-c1ccccc1)c1cc2ccccc2oc1=O,21.1%
Cc1cc(C)nc(SCc2cnc(C)nc2N)n1,-7.4%
Cc1ccc(CCNC(=O)Cn2ncc3c(=O)oc4ccccc4c32)cc1,-14.3%
Nc1ccc2nn(-c3ccccc3)nc2c1,-8.1%
Cc1ccc([N+](=O)[O-])cc1-c1ccc2cccc(C)c2n1,-0.2%
O=C(NCCc1ccccc1)Nc1cccc(Cl)c1,-5.4%
O=C(CN1C(=O)N/C(=C\c2ccccc2OCc2ccc(C(=O)O)cc2)C1=O)Nc1ccccc1F,-5.6%
COCCCNC(=O)C(=O)NCC1CCCN1S(=O)(=O)c1cccs1 (stereo not drawn),5.4%
C[C@H]1CN=C(Nc2ccccc2)N1CCc1ccc(F)cc1,-0.4%
CC1(C)CC(=O)c2cc(-c3nc(-c4ccc(Br)cc4)cs3)c(=O)n(-c3ccccc3)c2C1,-1.0%
CCN(CC)C(=O)CSc1nnc([C@@H](N)C(C)C)o1,2.7%
CCOC(=O)N1CCN(c2c(NCCCN(CC)c3cccc(C)c3)c(=O)c2=O)CC1,-11.6%
COc1ccc(N/C=C\C(=O)c2ccc3ccccc3c2)cc1,-10.4%
COC(=O)c1cc(NC(=O)CN(c2ccc(OC)cc2)S(=O)(=O)c2ccc(F)cc2)ccc1Cl,18.9%
O=C(NCc1ccc(Cl)cc1)C1CCN(S(=O)(=O)Cc2ccccc2)CC1,14.9%
COc1ccc(C(C)=O)cc1COC(=O)C1CCN(C(=O)c2ccc(Cl)cc2)CC1,-7.2%
CCOc1ccc(-n2c(SCC(=O)Nc3ccc(CC)cc3)nc3c(oc4ccccc43)c2=O)cc1,19.7%
Nc1c(C(=O)O)sc2nc(-c3ccccc3)c3c(c12)CCCC3,-25.1%
CCc1ccc(-c2ccc(SCc3ccccn3)nn2)cc1,-2.4%
# Going on with the list.
SMILES,VDR inh
Cc1nc(=O)c(-c2ccccc2)c(C)n1CCCO,-33.2%
CC(C)C(=O)Nc1ccc(-c2ccc3nncn3n2)cc1,-5.2%
CC1CCN(CCc2nc3cc(NC(=O)COc4ccc(Cl)cc4)ccc3n2C)CC1,?
NC(=O)c1ccccc1NC(=O)Nc1cccc2ccccc12,2.6%
COc1cccc(C(=O)NCCS(=O)(=O)NCc2ccc3c(c2)OCO3)c1,-2.4%
CCc1cccc(C)c1NS(=O)(=O)c1c(C(=O)N2CCCCCC2)c(C)n(C)c1C,-6.7%
CC(/C=C1\SC(=S)N(CCC(=O)Nc2ccccc2O)C1=O)=C\c1ccccc1,-6.8%
Nc1nc(N2CCCCC2)nc(N2CCCCC2)n1,5.7%
CCc1ccc2[nH]c(=O)c(CN(Cc3cccs3)Cc3nnnn3Cc3ccccc3)cc2c1,-9.8%
O=C(NCc1nc2cccnc2n1Cc1ccc(F)cc1)c1ccccc1C(F)(F)F,9.8%
O=C(Nc1nnc(-c2ccccc2)o1)c1cccc(N2C(=O)CCC2=O)c1,1.7%
Cn1c(=O)cc(SCC(=O)Nc2ccc3c(c2)OCO3)c2ccccc21,-2.7%
N=c1c2c3c(sc2nc2n1CCC2)CCCC3,-5.0%
Cc1ccccc1N(C(=O)c1csnn1)C(C(=O)NC(C)(C)C)c1ccncc1 (stereo not drawn),-10.1%
COc1cc2c(cc1OC)C(C(=O)N1CCN(c3ccccc3)CC1)C(c1cccs1)N(C)C2=O (stereo not drawn),-9.7%
O=C(O)c1ccccc1C(=O)Nc1ccccc1,17.2%
O=C(Cc1cccc2ccccc12)Nc1cc(Cl)ccc1C(=O)O,-10.4%
Cc1cccc(NC(=S)N(C)C2(c3ccccc3Cl)CCCCC2=O)c1 (stereo not drawn),-7.9%
COc1ccc(-c2c(=O)n(OCc3nc4ccccc4[nH]3)c3ccccc3[n+]2[O-])cc1,-3.1%
COc1ccc(-c2noc(CC(=O)Nc3cc(OC)ccc3OC)n2)cc1,8.1%
C=Cn1cc[n+](CC(=O)c2cccs2)c1,2.8%
O=C(Cn1cc(COc2cc(F)cc(F)c2)nn1)c1ccc(O)cc1,-8.7%
O=C(Nc1cccc(Cl)c1)NC1CCCCC1,0.0%
CCCCOc1ccc(C2CC(=O)NC2=O)cc1 (stereo not drawn),-21.9%
O=C(NNS(=O)(=O)Cc1ccccc1)c1ccc([N+](=O)[O-])cc1,-3.9%
# Later entries:
SMILES,VDR inh
COc1ccc(/C=C(/CC(=O)Nc2ccccc2)c2nc3ccccc3s2)cc1,4.6%
Cc1[nH]n(-c2ccc(F)cc2)c(=O)c1/C=N/c1sc2c(c1C#N)CCCC2,3.9%
CN1C=C/C(=C\c2cc[n+](C)c3ccccc23)c2ccccc21,1.4%
O=C(Nc1cccc(F)c1)N1CCC2(CC1)CCN(C(=O)c1ccco1)CC2,-1.8%
Nc1ccc2c(c1)Nc1ccccc1CC2,5.7%
CC(OC(=O)c1cccc(O)c1)C(=O)N(C)Cc1ccccc1 (stereo not drawn),-9.1%
O=C(CC1C(=O)NCCN1Cc1ccc(F)cc1Cl)NC1CCCCCCC1 (stereo not drawn),-18.5%
CC(=O)c1c(C)n([O-])c2ccc(C)cc2[n+]1=O,29.8%
CN1CCN(S(=O)(=O)c2ccc(NC(=O)c3ccccc3F)cc2)CC1,2.7%
CC1CN(S(=O)(=O)N2CCOCC2)CCN1S(=O)(=O)N1CCOCC1 (stereo not drawn),-8.1%
O=C(c1ccccc1)C1CCN(C(=O)C2CCC(=O)N(Cc3ccccc3F)C2)CC1 (stereo not drawn),0.3%
COc1ccc(C(=O)C(C)OC(=O)CNC(=O)c2ccco2)cc1 (stereo not drawn),6.1%
COC(=O)CNC(=O)c1cccc(Cl)c1,4.7%
Cc1ccc(CN2CCC(C(=O)NCCC(C)C)CC2)o1,-13.7%
O=C(COC(=O)c1cc(Cl)ccc1O)NC(=O)NCc1ccccc1,4.1%
Cn1c(=O)c(=O)n(C)c2cc(S(=O)(=O)NCCN3CCN(c4ccccc4F)CC3)ccc21,9.0%
O=C(CSc1nc2nc(-c3cccs3)cc(C(F)(F)F)c2c(=O)[nH]1)Nc1c(F)c(F)c(F)c(F)c1F,19.5%
CC(/C=N/NC(=S)Nc1cccc(S(=O)(=O)N(C)C)c1)c1ccccc1 (stereo not drawn),-25.3%
CCOC(=O)C1(CCOc2ccccc2)CCN(Cc2ccc3c(c2)OCCO3)CC1,-3.4%
O=C1C2C3CCC(O3)C2C(=O)N1c1nccs1 (stereo not drawn),-2.8%
Cc1cc(C)c(S(=O)(=O)Nc2cccc3cccnc23)c(C)c1,25.3%
COc1cc(CN2CCC(n3nccc3NC(=O)c3ccc4c(c3)OCO4)CC2)ccc1O,-11.6%
Oc1ccc(CNC2CCCCC2)cc1,10.1%
Cc1ccc(C)c(NC(=O)Cn2nnc(C(=O)NCc3ccco3)c2N)c1,7.3%&-3.8%
O=C(Nc1cccc(C(=O)N2CCN(c3ccc(Cl)cc3)CC2)c1)c1nsc2ccccc12,0.8%
C/C(CC(=O)Nc1cccnc1)=N/NC(=O)COc1ccc(Cl)cc1Br,5.2%

# Four compounds from above, arranged by molecular weight, ascending.
SMILES,VDR inh
COC(=O)CNC(=O)c1cccc(Cl)c1,4.7%
Cc1cc(C)c(S(=O)(=O)Nc2cccc3cccnc23)c(C)c1,25.3%
CN1CCN(S(=O)(=O)c2ccc(NC(=O)c3ccccc3F)cc2)CC1,2.7%
Cn1c(=O)c(=O)n(C)c2cc(S(=O)(=O)NCCN3CCN(c4ccccc4F)CC3)ccc21,9.0%

# In the list so far, these contain a cyano group.
SMILES,VDR inh
CN(C(=O)COC(=O)c1ccc(C#N)cc1)c1ccccc1,-6.3%
CN1CCN(/C=C(\C#N)S(=O)(=O)c2ccc(Cl)cc2)CC1,1.5%
CC1(C)CC(=O)C2=C(C1)OC(N)=C(C#N)C21CCC2(CC1)OCCO2,3.2%
Cc1[nH]n(-c2ccc(F)cc2)c(=O)c1/C=N/c1sc2c(c1C#N)CCCC2,3.9%

# Assay outcomes as filed in PubChem.
